Vaccinia Venus = qHTS for Stage-Specific Inhibitors of Vaccinia Orthopoxvirus: Venus Reporter Primary qHTS | Vaccinia virus Venus reporter expression, fluorescence | Potency, µM (doses to about 36.5 µM), for inactives: at the top dose activity change, negative = inhibition, hits mostly inhibitors | 0.46% of 330,000 active | AID 720580, 2013; active means well fitted inhibition curve with a large enough effect; inconclusive means small, poorly fitted or top-dose-only effect; inactive means no such curve, though single readings can be large or run the other way; tested in A549 cells; further: nearly all actives have a fitted effect of over 30% in size; inactives centre near -10
VACV mCherry inh = qHTS for Stage-Specific Inhibitors of Vaccinia Orthopoxvirus: mCherry Reporter Primary qHTS; 0.63% of 310,000 active; Potency, µM (doses to about 36.5 µM), for the others: at the highest dose activity change, negative = inhibition, hits mostly inhibitors; Vaccinia virus mCherry reporter infection, fluorescence; about a quarter of the inactives have no number; active = well fitted inhibition curve with a large enough effect; inconclusive = small, poorly fitted or top-dose-only effect; inactive = no such curve, though single readings can be large or run the other way; tested in A549 cells; further: nearly all actives have a fitted effect of over 35% in size; inactives centre near -10
The depositor's hits bear a star; i = inactive; u = inconclusive; x = not tested or not shown; & = joins results of further samples; [ ] = dose if it differs, or a comment. On the % scale 0 is the no-effect control and ±100 the full control effect; potency means the concentration at half of the fitted maximal effect.

The first 16 compounds (preview)
SMILES | Vaccinia Venus | VACV mCherry inh
CCC(C)NS(=O)(=O)c1ccc(NC(=O)C2CCCO2)cc1 (stereo unspecified) | -1% | 4%
N=c1oc2cc(O)ccc2cc1C(=O)Nc1ccc(Br)cc1 | u | u
CC(=O)Nc1ccc(S(=O)(=O)Oc2ccc(C(=S)N3CCCCC3)cc2)cc1 | -24% | u
CN(C)c1ccc(/C=C/C=C/c2sc3ccccc3[n+]2C)cc1 | -14% | -25%
CCOC(=O)C1CCN(C(=O)c2cccc(NS(=O)(=O)c3ccc(F)c(F)c3)c2)CC1 | -7% | -3%
Cc1ccc(-c2cc(C(=O)Nc3cnn(C(C)C)c3)no2)cc1 | -21% | -18%
CCOC(=O)c1sc(NC(=O)C2CC(=O)N(c3ccccc3C)C2)nc1C (stereo unspecified) | -14% | -5%
CSc1nsc(SC)c1C(=O)OCC(F)(F)F | -2% | x
CC(=O)NC(Cc1ccc(N(CCCl)CCCl)cc1)C(=O)O (stereo unspecified) | -3% | i
NC(=O)c1ccc(NC(=O)CS(=O)(=O)c2cn(CC(=O)N3CCCC3)c3ccccc23)cc1 | -14% | -14%
N#CCc1ccc(NC(=O)c2ccc(S(=O)(=O)N3CCCC3)cc2)cc1 | -7% | -28%
CCn1c(N)c(C(=O)NCCOC)sc1=S | -10% | -17%
C=CCSc1nc2sc(C)c(C)c2c(=O)[nH]1 | -19% | i
O=S(=O)(c1ccccc1F)N1CCN(CCc2ccccc2)CC1 | -24% | -8%
Cc1ccc(/C=N\NC(=O)C2CN(S(=O)(=O)c3ccccc3)CCN2S(=O)(=O)c2ccccc2)cc1 (stereo unspecified) | -25% | -11%
O=C(Cc1cccs1)Nc1ccc(Cl)cc1 | -13% | -4%

The whole of this part, previewed entries included:
SMILES | Vaccinia Venus | VACV mCherry inh
CCC(C)NS(=O)(=O)c1ccc(NC(=O)C2CCCO2)cc1 (stereo unspecified) | -1% | 4%
N=c1oc2cc(O)ccc2cc1C(=O)Nc1ccc(Br)cc1 | u | u
CC(=O)Nc1ccc(S(=O)(=O)Oc2ccc(C(=S)N3CCCCC3)cc2)cc1 | -24% | u
CN(C)c1ccc(/C=C/C=C/c2sc3ccccc3[n+]2C)cc1 | -14% | -25%
CCOC(=O)C1CCN(C(=O)c2cccc(NS(=O)(=O)c3ccc(F)c(F)c3)c2)CC1 | -7% | -3%
Cc1ccc(-c2cc(C(=O)Nc3cnn(C(C)C)c3)no2)cc1 | -21% | -18%
CCOC(=O)c1sc(NC(=O)C2CC(=O)N(c3ccccc3C)C2)nc1C (stereo unspecified) | -14% | -5%
CSc1nsc(SC)c1C(=O)OCC(F)(F)F | -2% | x
CC(=O)NC(Cc1ccc(N(CCCl)CCCl)cc1)C(=O)O (stereo unspecified) | -3% | i
NC(=O)c1ccc(NC(=O)CS(=O)(=O)c2cn(CC(=O)N3CCCC3)c3ccccc23)cc1 | -14% | -14%
N#CCc1ccc(NC(=O)c2ccc(S(=O)(=O)N3CCCC3)cc2)cc1 | -7% | -28%
CCn1c(N)c(C(=O)NCCOC)sc1=S | -10% | -17%
C=CCSc1nc2sc(C)c(C)c2c(=O)[nH]1 | -19% | i
O=S(=O)(c1ccccc1F)N1CCN(CCc2ccccc2)CC1 | -24% | -8%
Cc1ccc(/C=N\NC(=O)C2CN(S(=O)(=O)c3ccccc3)CCN2S(=O)(=O)c2ccccc2)cc1 (stereo unspecified) | -25% | -11%
O=C(Cc1cccs1)Nc1ccc(Cl)cc1 | -13% | -4%
O=C(OCCN(C1=NS(=O)(=O)c2ccccc21)c1ccccc1Cl)c1ccc(Cl)cc1 | -20% | -9%
C(/C=C/c1ccco1)=N/N1CCN(c2ccccc2)CC1 | 16% | x
COc1cccc(NS(=O)(=O)c2ccc3c(c2)C2C=CCC2C(c2ccc(C(=O)O)cc2)N3)c1 (stereo unspecified) | -1% | -4%
CC1=C(C(=O)OCc2ccccc2)C(c2ccccc2OS(=O)(=O)c2ccccc2[N+](=O)[O-])NC(=O)N1CCCC(=O)O (stereo unspecified) | u | -2%
O=C(CS(=O)(=O)c1ccccc1)Nc1ccc(N2CCOCC2)cc1 | -6% | -10%
CN(C)CCNC(=O)c1sc2nc(-c3ccccc3)cc(C(F)(F)F)c2c1N | u | u
CCN(CC)CCNC(=O)c1ccc(NC(=O)c2cc(S(=O)(=O)N3CCCCC3)ccc2C)cc1 | -16% | -20%
Nc1cc(N)nc(SCc2nnnn2-c2ccc(Cl)cc2)n1 | -13% | -10%
COc1ccc(NC(=O)CN2CCC(C(=O)c3ccc(C)cc3)CC2)c(OC)c1 | -9% | 18%
CC1CCCN(C(=O)COC(=O)C2CCN(S(=O)(=O)c3ccc(Cl)c(C(F)(F)F)c3)CC2)C1 (stereo unspecified) | -16% | -17%
COc1cc2c(Nc3ccc(NC(=O)c4ccccc4)cc3)ncnc2cc1OCCCN1CCOCC1 | -26% | 5%
O=C(c1cc(S(=O)(=O)N2CCOCC2)ccc1F)N1CCCc2ccccc21 | -22% | x
COc1ccc(/C=C2/S/C(=N/N=C3\CC4CCC3(C)C4(C)C)NC2=O)cc1 (stereo unspecified) | u | x
O=C(COC(=O)C1CCN(S(=O)(=O)c2cccs2)CC1)Nc1ccc(F)c(F)c1F | -9% | -14%
COC(=O)c1ccc(C(=O)OC)c(NC(=O)CSc2n[nH]c(N)n2)c1 | -12% | i
CC(=O)Nc1ccc(NC(=O)COc2ccc(S(=O)(=O)N3CCCC3)cc2)cc1 | -2% | -3%
O=S1(=O)CCN(C2CCCCCCC2)CC1 | -16% | -7%
COc1ccc(Cl)cc1NC(=O)CCCS(=O)(=O)c1nc(-c2ccc(OC)c(OC)c2)cc(C(F)(F)F)n1 | -13% | -12%
O=C(COC(=O)C1Cc2ccccc2CN1C(=O)c1ccccc1)Nc1ccc(SC(F)F)cc1 (stereo unspecified) | -9% | i
C[N+]1(C2CCC3CCCC2C3O)CCCC1 (stereo unspecified) | -16% | -7%
CC(=O)Oc1ccc(-c2cccc(C(=O)O)c2)cc1 | -8% | i
CN(C)/C=C(/C(=O)c1ccc(Cl)cc1)n1cncn1 | -2% | -19%
CCOC(=O)c1c(NC(=O)c2c(C(=O)O)cccc2[N+](=O)[O-])sc2c1CCCC2 | -4% | i
Cc1cc2ncn(/N=C/c3ccc4c(c3)OCO4)c2cc1C | -6% | -7%
CC(=O)Nc1ccc(Br)c2ccccc12 | -8% | i
CCc1ccc(OCC(=O)NC(=S)Nc2ccc(S(=O)(=O)NC3CCCCC3)cc2)cc1 | -27% | -21%
CCOc1ccc(NC(=O)CN(C)C(=O)CC2OC(=O)c3ccccc32)cc1OCC (stereo unspecified) | -4% | i
CC(C)N1CCc2c(sc(NC(=O)CCS(=O)(=O)c3ccccc3)c2C#N)C1 | -19% | -21%
CCN1CCc2nc(NC(=O)c3ccc(S(=O)(=O)N(C)C)cc3)sc2C1 | -2% | -17%
COc1ccc(NS(=O)(=O)c2ccc3c(c2)OCCO3)cc1OC | -6% | -27%
CCC(Sc1ccc2nnc(-c3cccnc3)n2n1)C(=O)O (stereo unspecified) | -4%&-12% | -11%
CN(Cc1cccs1)C(=O)Cn1cnc2ccccc2c1=O | -2% | -13%
CCCCCCCCN1C(=O)[C@H](CC(=O)NCC2CCCCC2)C[C@@]2(C(=O)OC)CCCCC=C12 | -9% | 9%
COc1ccc(-c2ccc(C(=O)NCC3CCOCC3)c3occc23)c(C)c1 | -23% | -9%
CCc1cccc(C)c1NC(=O)COC(=O)Cc1ccsc1 | -14% | -20%
CN(CC(=O)Nc1ccc(F)cc1F)S(=O)(=O)c1cccc2nsnc12 | -8% | -7%
O=C1CCN(Cc2ccccc2)CCN1CCSc1ccccc1 | -5%&0% | u
CN1CCc2nc3sc(C(=O)Nc4ccccc4OC(F)(F)F)c(N)c3cc2C1 | -19% | -15%
O=C(COC(=O)c1ccc2[nH]c3c(c2c1)CCCC3)Nc1ccc(Cl)cc1Cl | -8% | i
COCC1CCN(C(=O)c2cc(COc3ccccc3SC)on2)C1 (stereo unspecified) | -24% | -13%
CN(C)C(CNc1ncnc2sccc12)c1ccccc1 (stereo unspecified) | 1% | -19%
COCCN(C(=O)CSc1nnc(-c2ccccc2F)n1N)c1c(N)n(Cc2ccccc2)c(=O)[nH]c1=O | -8% | -12%
FC(F)(F)c1ccccc1NC(=S)NN=C1CCCCCC1 | -9% | u
C=CCn1cc(Cl)cc(C(=O)Nc2ccccc2)c1=O | -6% | -5%
Following part:
SMILES | Vaccinia Venus | VACV mCherry inh
CCCCn1c(N)c(N(CCOC)C(=O)COC(=O)COc2c(C)cc(C)cc2C)c(=O)[nH]c1=O | -3% | -14%
Cc1ccccc1NC(=O)c1ccc(S(=O)(=O)N2CCCC2)cc1 | -7% | -10%
Cc1cccc(OCC(=O)Nc2ccccc2C(F)(F)F)c1 | -19% | -2%
COc1ccc(CCNC(=O)c2ccc3c(c2)nc(C)n3-c2ccc(Br)cc2)cc1OC | -11% | -10%
CCN(c1ccccc1)S(=O)(=O)c1cc(C(=O)NCc2ccccn2)ccc1C | -23% | u
O=C(Nc1cccc(F)c1)NC1CCCc2ccccc21 (stereo unspecified) | -17% | -10%
CC1COc2ccccc2N1C(=O)c1cccnc1Cl (stereo unspecified) | 2% | i
CC1=CC(C)(C)Nc2ccc(OC(=O)CN3C(=O)c4ccccc4C3=O)cc21 | 65%[activator] | -12%
Cc1ccccc1-c1nc(CN2CCC(C(=O)N3CCC(C(N)=O)CC3)CC2)c(C)o1 | -5% | i
O=C(COc1ccc(Br)cc1)Nc1ccc2c(c1)C(=O)NC2=O | -4% | -12%
CCOC(=O)CSc1nnc2c(n1)C1(C)CCC2C1(C)C (stereo unspecified) | -7% | -7%
Cc1cc(C)c(NC(=O)CSCc2c(C)noc2C)c(C)c1 | -12% | -15%
CCN(CC)c1ccc(/C=N/NC(=S)NCc2ccccc2)c(O)c1 | u | u
CCCCCCCCCCCCCC(=O)N[C@@H](C)[C@H](O)c1ccccc1 | -13%[3.33 µM] | -18%[3.33 µM]
CN(C)c1ccccc1C(=O)c1ccccc1N(C)C | u | u
COC(=O)c1sc(N2CCCCC2)c(C#N)c1N | -20% | u
O=C(O)CSc1c2c(nc3cc(C(=O)NCCN4CCOCC4)ccc13)CCC2 | -6% | i
O=C1C2CCCN2C(=O)N1CCCCN1CCN(c2cccc(Cl)c2)CC1 (stereo unspecified) | -28% | -19%
O=C(c1ccc2c(c1)N(Cc1cccc(F)c1)C(=O)c1ccccc1S2)N1CCCC1 | 0% | -10%
CCCn1c2ccccc2c2cnn(CC(=O)Nc3cc(C)c(Cl)cc3OC)c(=O)c21 | -12% | -28%
CC(C)(C)NC(=O)Cn1nnnc1-c1nonc1N | 2% | x
Cc1cccc(N2CCN(C(=O)c3nn(C)c4c3CSc3ccccc3-4)CC2C)c1 (stereo unspecified) | -10% | -4%
Cc1nc(NCc2cnn(C)c2C)sc1-c1ccn(CC2COc3ccccc3O2)n1 (stereo unspecified) | -3% | -12%
CN(C(=O)C1CCCO1)C1CCS(=O)(=O)C1 (stereo unspecified) | 0% | i
CCOc1ccc(Nc2nc(NCC3CCCO3)c3ccccc3n2)cc1 (stereo unspecified) | u | -19%
CC1(C)NC(=O)N(CC(=O)NNC(=O)c2ccccc2F)C1=O | -10% | i
O=C1CC(C(=O)N2CCCC(c3nc(-c4ccncc4)ncc3-c3ccccc3)C2)C2(CCCCC2)O1 (stereo unspecified) | 0% | -14%
COC(=O)C1CN(C(=O)c2cccc(OC(F)F)c2)c2ccccc2O1 (stereo unspecified) | 5% | 12%
CCCCCCS(=O)[C@H]1CS(=O)(=O)C[C@@H]1S(=O)CCCCCC (stereo partly specified) | -24% | x
COc1ccc(-c2nc3sc(CCNC(=O)C(=O)Nc4ccc(C)c(C)c4)c(C)n3n2)cc1 | -5% | -1%
CC(C)CCNc1nc2c(cc1C#N)COC(C)(C)C2 | -16% | i
COc1ccc(CCNC(=O)CCn2c(=O)c3cccn3c3ccc(F)cc32)c(OC)c1OC | -2% | 5%
COc1ccc(N2CCN(C(=O)c3[nH]c4ccc(OC)cc4c3C)CC2)cc1 | -17% | -14%
CCCC(C)C(=O)Nc1ccc(S(=O)(=O)N2CCCC2)cc1 (stereo unspecified) | -6% | i
CC(C)CNC(=O)c1ccccc1NC(=O)c1ccccc1N(C)S(=O)(=O)c1ccccc1 | -8% | i
Cc1ccc(NC(=O)C2=NNC(=O)CC2)cc1S(=O)(=O)Nc1ccc(SC(F)F)cc1 | -17% | 0%
C1CCC(Nc2nnnn2C2CCCCC2)CC1 | -9% | x
COc1ccc(CC(=O)N2CCN(C)CC2)cc1OC | -9% | -11%
O=C(c1ccccc1)N1CCN(S(=O)(=O)N2CCCCC2)CC1 | -11% | x
CNS(=O)(=O)c1cn(CC(=O)Nc2ccc(C)c(N(C)C)c2)cc1S(=O)(=O)NC | -11% | -11%
COc1ccc(OC)c(CCNC(=O)c2cc3c(-c4ccccc4F)nn(C)c3s2)c1 | u | u

Source: PubChem BioAssay (National Center for Advancing Translational Sciences (NCATS))
